Compound activity: PubChem, National Center for Advancing Translational Sciences (NCATS)
SmPrx2 inh = Schistosoma Mansoni Peroxiredoxins (Prx2); S. mansoni Prx2 activity coupled to TGR/GSH (TGR is thioredoxin glutathione reductase), NADPH fluorescence loss, qHTS; some inactives read as strong as hits; Potency, µM; hit rate 0.07% among 65,000; active means full or partial inhibition curve with a strong effect at the top dose; inconclusive means weaker partial or single-point curve; inactive means no accepted curve; also: series up to 57 µM; many of its hits are not listed in these tables
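Prx2 inhibition was measured as reduced NADPH consumption when electrons flowed from NADPH through TGR and glutathione to Prx2 and H2O2. Plates were read kinetically over 8 min; enzyme reagents were held at 4 deg C during dispensing.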
LT uptake inh = qHTS Assay for Anthrax Lethal Toxin Internalization; Cells, anthrax lethal toxin internalization, FRET ratio (460/530); Potency, µM (highest dose often 40 µM), without a hit: at the top dose activity change, negative = inhibition, actives largely listed as inhibitors; hit rate 0.67% among 70,000; active = well fitted falling ratio curve with the 530 nm signal flat; inconclusive = other ratio curves, or a change in one channel alone; inactive = flat curves in the ratio and both channels; the % refers to the ratio; also: % is scaled to controls: 0 for no effect and ±100 for the full control effect; nearly all actives have a fitted effect of over 50% in size; tested in ME-180 cells; beta-lactamase reporter
* = called active by the depositor; ? = inconclusive; nt = not tested or not shown; & = joins results of further samples; [ ] = dose if it differs, or a comment. Potency is read from the fitted curve at half-maximal effect. A portion of the library. The share of hits here may be higher or lower than overall.

Start of the listing, in advance (4 entries):
SMILES	SmPrx2 inh	LT uptake inh
FC(F)(F)c1cc(-c2ccc3c(c2)OCO3)nc(NCc2ccco2)n1	>57	?
Cc1ccc(S(=O)(=O)NCCSc2nnnn2C)cc1	>57	-33%
CCOc1ccc(C2C(C(=O)c3ccco3)=C(O)C(=O)N2CCCn2ccnc2)cc1 (configuration not stated)	>57	4%
COc1ccc(OC)c(S(=O)(=O)Nc2ccc(C(N)=O)cc2)c1	>57	-1%

Main list, from the first entry:
SMILES	SmPrx2 inh	LT uptake inh
FC(F)(F)c1cc(-c2ccc3c(c2)OCO3)nc(NCc2ccco2)n1	>57	?
Cc1ccc(S(=O)(=O)NCCSc2nnnn2C)cc1	>57	-33%
CCOc1ccc(C2C(C(=O)c3ccco3)=C(O)C(=O)N2CCCn2ccnc2)cc1 (configuration not stated)	>57	4%
COc1ccc(OC)c(S(=O)(=O)Nc2ccc(C(N)=O)cc2)c1	>57	-1%
CC1Cc2c(COc3ccccc3)nc3c(c2CO1)CN(CCOc1ccccc1)CC3 (configuration not stated)	nt	-6%[8 µM]
CNC(=O)[C@H]1O[C@H](n2cnc3c(NCc4cccc(I)c4)nc(Cl)nc32)[C@@H](O)[C@@H]1O	>57	?
CCOc1ccc(S(=O)(=O)Nc2cccc(C(=O)N3CCN(c4ccc(OC)cc4)CC3)c2)cc1	>57	-9%
COc1ccc(S(=O)(=O)NCC(=O)N(CC(=O)NCC2CCCO2)c2ccccc2C)cc1 (configuration not stated)	>57	?
N#Cc1ccccc1S(=O)(=O)N1CCN(c2ccc(S(=O)(=O)N3CCOCC3)cn2)CC1	>57	-5%
NCCCCNS(=O)(=O)c1cccc2c(Cl)cccc12	>57	-1%
C=CCn1c(-c2ccc(OC)cc2)nc2ccccc21	>57	-3%
O=C(O)c1cccnc1C(=O)O	>57&>57	?
Cc1cc(NC(=O)CN2C(=O)CC(c3ccco3)Sc3ccccc32)no1 (configuration not stated)	>57	?
CC1CCN(S(=O)(=O)c2ccc(S(=O)(=O)NCC(=O)C(C)(C)C)cc2)CC1	>57	?
C(=N\C(/N=C/c1ccco1)c1ccco1)/c1ccco1	>57	-6%
CCc1nnc(NC(=O)C2CC(=O)N(CCc3ccccc3)C2)s1 (configuration not stated)	>57	19%
CC(C)(C)c1cc(C#N)cc(Br)c1OP(=O)(Oc1c(Br)cc(C#N)cc1C(C)(C)C)c1ccccc1	>57	-11%[8 µM]
Cc1ccc(Nc2cc(-n3nc(C)cc3C)ncn2)cc1	>57	1%
c1ccc(COc2cccc(CNn3cnnc3)c2)cc1	>57	-4%
CCn1c(=N)n(CC(=O)OC)c2ccccc21	>57	-13%
O=S(=O)(c1ccc2c(c1)nc1n2CCC1)N1CCOCC1	>57	-2%
COc1ccc(N(CC(=O)NC2CCCCC2)C(=O)CCCC(=O)Nc2ccccn2)c(OC)c1	>57	11%
O=S(=O)(c1ccc2oc3ccc(S(=O)(=O)N4CCCC4)cc3c2c1)N1CCCC1	>57	-2%
C[C@]1(O)CC[C@H]2[C@@H]3[C@@H](O)CC4=CC(=O)CC[C@@]4(C)[C@H]3CC[C@]21C	>57	2%[8 µM]
O=C(Nc1cccnc1)c1cccc(S(=O)(=O)N2CCOCC2)c1	>57	10%
Cc1cc(NC(=O)CSc2ccc3c(c2)OCCO3)no1	>57	-5%
CC(=O)C1=C(C)NC(SCC(=O)c2ccc(F)cc2)=C(C#N)C1c1ccco1 (configuration not stated)	nt	?
CCOc1ccc(C2CC(c3ccc(Br)cc3)Nc3nc(N)nn32)cc1 (configuration not stated)	>57	8%
O=C1C=CCCC1	nt	4%
CCOc1ccc(NC(=O)N2CC=C(n3c(=O)[nH]c4ccccc43)CC2)cc1	>57	-13%
COc1cc2cc(CN(C(=O)Nc3ccccc3)C3CCCC3)c(=O)[nH]c2cc1OC	>57	-3%
CCOc1nc(C)ccc1-c1noc(-c2ccncc2)n1	>57	6%
O=C(CN1CCOc2ccccc21)NCc1ccco1	>57	-2%
CC(C)n1c(SCC(=O)Nc2ccccc2N2CCCCC2)nc2c1c(=O)n(C)c(=O)n2C	>57	-2%
Cc1cc(C)n(Cc2ccccc2Cl)n1	>57	5%
COCCn1c(C(=O)N(C)C)cc2c1C[C@H]1CN(C(=O)c3ccccc3)[C@@](Cc3ccc(F)cc3)(C(=O)OC)[C@@H]21	>57	4%
CCC(Sc1nc(=O)cc(N)n1-c1ccccc1)C(=O)Nc1cc(C)on1 (configuration not stated)	nt	-23%
COC(=O)c1ccccc1NC(=O)N1CCN(C/C=C/c2ccccc2)CC1	>57	-10%
COc1ccc(C2CC(O)(C(C)(C)O)NO2)cc1 (configuration not stated)	>57	-3%
COc1ccc(C2(O)CCN(CCCCOc3ccccc3)CC2)cc1	>57	-22%
O=C(Cc1cccs1)NCc1cccs1	>57	?
COc1ccccc1CN1CCC2(CC1)CCN(C(=O)c1csnn1)CC2	>57	?
COCCNC(=O)CN1C(=O)COc2ccc(Cl)cc21	>57	-1%
OCCN1CCN(c2ncnc3ccc(Br)cc23)CC1	>57	-4%
CC1=C(C(=O)OCc2ccccc2)C(c2ccc(C3CCCCC3)cc2)NC(=O)N1CCCCCC(=O)O (configuration not stated)	nt	?
CCn1c(COc2ccccc2C)nnc1SCC(=O)CC(=O)Nc1ccccc1	nt	?
CCNc1ncc2nc(CCc3ccccc3)c(=O)n(Cc3ccc(F)cc3)c2n1	>57	?
C=CCn1c(N)c(C(=O)NCC2CCCO2)c2nc3ccccc3nc21 (configuration not stated)	>57	?
COc1ccc(OCC(O)Cn2c(Br)nc3c2c(=O)[nH]c(=O)n3C)cc1 (configuration not stated)	>57	-19%
COc1ccc(NC(=O)C2CC(=O)N(c3cccc(C)c3C)C2)cc1 (configuration not stated)	>57	4%
More compounds follow.
SMILES	SmPrx2 inh	LT uptake inh
CN(C)c1ccc(P(=O)(OCc2ccccc2)C(O)c2cccnc2)cc1 (configuration not stated)	>57	-13%
COC(=O)c1sc(NC(=O)c2ccoc2C)nc1C	>57	5%
CC(C)(Oc1ccc(-c2cccc3ccccc23)cc1)C(=O)O	>57	-10%[8 µM]
Cc1nnc(NC(=O)Nc2cccc(Cl)c2)s1	>57	?
Cc1nn(C(=O)c2cccnc2)c(C)c1C	>57	5%
COC(=O)c1cn(C(=O)OC)c2ccccc12	>57	-4%
CCCCn1c(=O)c(C(=O)OCC)c(O)c2ccccc21	>57	0%
Cc1ccc(C)n1NC(=O)c1ccccc1Cl	>57	-20%
COc1ccc(-n2c(Cc3cc(=O)[nH]c(=O)[nH]3)nnc2SCc2ccccc2)cc1	>57	3%
CCOC(=O)CSc1n[nH]c(-c2ccco2)n1	>57	2%
COC(=O)C(O)(c1cn(C)c2ccccc12)C(F)(F)F (configuration not stated)	>57	-6%
Cc1onc(-c2c(F)cccc2Cl)c1C(=O)Nc1nnc(C2CC2)s1	>57	-12%
O=C(NCc1ccccc1Cl)C1CCCN(S(=O)(=O)c2cnc[nH]2)C1 (configuration not stated)	>57	0%
COCCn1c(=O)[nH]c2cc(C(=O)NCC3CCCO3)ccc2c1=O (configuration not stated)	>57	1%
Cc1ccccc1-c1nc(-n2ccnc2)c2ccccc2n1	>57	?
CCCCOc1ccc(CN2CCC(O)CC2)cc1	nt	-7%
CCN(CC)S(=O)(=O)c1ccccc1/C=N\O	>57	6%
O=C(CN1C(=O)COc2ccccc21)N1CCN(c2ccccc2F)CC1	>57	7%
Cc1nc2ccc(N)cc2c(=O)n1Cc1ccc(Cl)cc1	>57	5%
COCn1c(-c2cccc(Br)c2)nc2ccccc21	nt	-12%
COC(=O)c1ccc(OCCN2C3=NCCN3c3ccccc32)cc1	>57	15%
Cc1cc(CC(C)C)n(-c2nc3ccccc3c(=O)n2OCC(N)=O)n1	>57	nt
N#Cc1cccc(-c2ccc3ncnc(NCc4cccs4)c3c2)c1	>57	?
CCOC(=O)Nc1ccccc1N1C(=O)c2ccccc2C1=O	>57	-5%
CCc1ccc(C(=O)NCC2COc3ccccc3O2)o1 (configuration not stated)	nt	-11%
c1cc(Cc2cnc[nH]2)ccn1	nt	-3%
Cc1cc(S(=O)(=O)N(C)CCc2ccccc2)ccc1-n1cnnn1	>57	1%
CCOc1cc(-c2ccccc2)nc(N)n1	>57	1%
Cc1cc(=O)n2nc(N3CCC(C(=O)N4CCN(Cc5ccccc5)CC4)CC3)sc2n1	>57	0%
CC1(C)CC(=O)N(CC(=O)NCc2ccccc2)c2ccccc2S1(=O)=O	>57	-2%

One compound at a time (already shown). Values in the order: SmPrx2 inh | LT uptake inh
Record of CCOC(=O)Nc1ccccc1N1C(=O)c2ccccc2C1=O : >57 | -5%
Record of CCc1ccc(C(=O)NCC2COc3ccccc3O2)o1 (configuration not stated) : nt | -11%
Record of CCOc1cc(-c2ccccc2)nc(N)n1 : >57 | 1%
Record of COC(=O)c1ccc(OCCN2C3=NCCN3c3ccccc32)cc1 : >57 | 15%
Record of CC1(C)CC(=O)N(CC(=O)NCc2ccccc2)c2ccccc2S1(=O)=O : >57 | -2%

More compounds
SMILES	SmPrx2 inh	LT uptake inh
O=C(O)CC1CCC(=C(Cl)Cl)C1 (configuration not stated)	>57	-3%
O=C(CN1C(=O)c2cccc3cccc1c23)NCC1CCCO1 (configuration not stated)	>57	0%
COc1ccc(COC(=O)N/N=C2/C[C@@H](O)[C@@H](O)[C@@H]3[C@@H]4C(=O)N(C[C@@H]5CCCO5)C(=O)[C@H]4CC[C@@H]23)cc1	nt	13%[8 µM]
CCN1CCN(c2ncnc3c2oc2nc(C)c4c(c23)CC(C)(C)OC4)CC1	>57	-2%
COc1ccc2c(c1)[nH]c1c(=O)n(CCc3cnc[nH]3)cnc12	>57	13%
COc1ccc(CCNC(=O)C2CCN(S(C)(=O)=O)CC2)cc1OC	>57	-9%
COc1ccc(CCC(=O)NCCc2cn3c(C)csc3n2)cc1	>57	-3%
Cc1nc2c(-c3ccccc3)c(C)nn2c(C)c1CC(=O)O	>57	-7%
COC(=O)c1oc2ccc(Br)cc2c1NC(=O)CN1CCN(C)CC1	>57	3%
O=C1c2ccccc2C(=O)N1CCSc1nncs1	>57	-2%
CCc1nnc(NC(=O)CSc2nnc(-c3ccccc3OC)n2-c2ccccc2)s1	>57	-13%
O=C(CSCCO)Nc1cccc2ccccc12	>57	2%
CC(C)OC(=O)CC(=O)CSc1nc2c(cc1C#N)CCCC2	>57	16%
Oc1ccccc1Oc1ncc(Br)c(N2CCOCC2)n1	>57	14%
CCc1nc(NCC2CCCN2CC)c2nnn(Cc3ccccc3F)c2n1 (configuration not stated)	>57	-21%
O=C(O)COc1ccccc1C1C2C(=O)N(c3ccc(F)cc3)C(=O)C2ON1c1ccccc1 (configuration not stated)	>57	-9%
COc1cccc(Cn2c(=O)c(CCc3ccccc3)nc3cnc(N(C)C)nc32)c1	>11	?
CC(=O)N(CCP(=O)(c1ccccc1)c1ccccc1)Cc1ccco1	>57	3%
CC(=O)Nc1cc(C(=O)N2CCOCC2)ccc1S(=O)(=O)c1ccc(C)cc1	>57	2%
Cc1ccnc2ccc(-c3nc4ccccc4o3)cc12	>57	-17%
CCOC(=O)c1ccc(NC(=O)Nc2ccc3c4c(cccc24)C(=O)N3CC)cc1	>57	13%
COC(=O)C1=C(C)N(C)C(C)=C(C(=O)OC)C1c1ccc(F)c(Br)c1	nt	?
COc1cc(C(=O)Nc2ccc(-n3cnnn3)c(C)c2)cc(OC)c1OC	>57	15%
O=C(CCSCCc1ccccn1)Nc1ccccn1	>57	25%
CCCC(=O)Nc1ccc2oc(-c3ccc(OC)c(Br)c3)nc2c1	>57	nt
Cc1ccc(N2C(=O)c3oc4ccccc4c(=O)c3C2c2cccnc2)nc1 (configuration not stated)	>57	-2%
CN(C)S(=O)(=O)c1cccc(C(=O)OCC(=O)N2c3ccccc3NC(=O)C2(C)C)c1	>57	?
O=C(Nc1ccc(F)cc1)c1oc2ccccc2c1NC(=O)C1CCCC1	>57	-6%
CN(CC(=O)NC1CCCCC1)S(=O)(=O)c1ccc(Cl)cc1	>57	-10%
O=C(O)CCSCc1ccccc1F	>57	-8%

Structural class, the entries above containing a tert-butyl group (two)
SMILES	SmPrx2 inh	LT uptake inh
CC1CCN(S(=O)(=O)c2ccc(S(=O)(=O)NCC(=O)C(C)(C)C)cc2)CC1	>57	?
CC(C)(C)c1cc(C#N)cc(Br)c1OP(=O)(Oc1c(Br)cc(C#N)cc1C(C)(C)C)c1ccccc1	>57	-11%[8 µM]

(next part)
SMILES	SmPrx2 inh	LT uptake inh
CCCOc1ccc(C(=O)N2CCN(c3ccc(NC(=O)CC)cc3Cl)CC2)cc1	>57	?
CC(=O)N1CCC(=O)N(C(C)C)c2ccccc21	>57	-5%
CCOC(=O)C(CC)Sc1ncnc2nc[nH]c12 (configuration not stated)	>57	-3%
Cc1ccc(S(=O)(=O)Cn2nnnc2C(c2ccccn2)N2CCN(c3ccccc3)CC2)cc1 (configuration not stated)	>57	-16%
O=C(Nc1cnc2ccccn2c1=O)c1ccc(F)cc1	>57	-3%
CC(C)c1cc(C(=O)NCc2ccco2)no1	>57	2%
Cc1ccccc1-c1nc(CS(=O)(=O)CC(=O)N(C)C2CCCCC2)c(C)o1	>57	-7%
CCOC(=O)C1CCCN(c2c(NCc3ccco3)c(=O)c2=O)C1 (configuration not stated)	>57	3%
Cc1cnc(CNc2cc(-c3ccccc3CN(C)C)ncn2)cn1	nt	-9%
O=C(c1ccco1)N1CCN(CC2CC3C=CC2C3)CC1 (configuration not stated)	>57	7%
Cc1ccnc(N(C(=O)c2cccs2)C(=O)c2cccs2)c1	>57	-5%
